NOMO-1 viab: NOMO-1 AML cell viability reduction, primary screen, STK33 inhibitor project, CellTiter-Glo luminescence. NOMO-1 AML viability, 72 h. inhibition, % (test concentration not listed). 37,000 tested, 7.5% active;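 active = most replicates above 80%; inconclusive = exactly half above 80%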;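 note: wells of about 30 µL received 25 nL stock; 0% = median of vehicle wells and 100% = reference inhibitor level; the first replicate is given; inactives centre near 10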
* hit, by the source's call; u = inconclusive. A portion of the library (hit frequency here may not be typical).

SMILES | NOMO-1 viab
COc1ccc(S(=O)(=O)Nc2cccc3c2O[C@@H](CN(C)Cc2ccc(C(=O)O)cc2)[C@@H](C)CN([C@H](C)CO)C3=O)cc1 | -2
Cc1ccc(O)c(NC(=S)NC(=O)c2ccc(-c3ccccc3[N+](=O)[O-])o2)c1 | 36
C[C@H]1CN([C@@H](C)CO)C(=O)c2cc(NC(=O)C3CC3)ccc2O[C@H]1CN(C)Cc1ccc(-c2ccccc2)cc1 | 11
C[C@@H]1CN([C@H](C)CO)C(=O)Cc2cc(NC(=O)Cc3ccccc3)ccc2O[C@H]1CN(C)Cc1ccccc1 | -6
C[C@@H]1CN([C@H](C)CO)C(=O)Cc2cc(NC(=O)Nc3ccccc3)ccc2O[C@@H]1CN(C)S(=O)(=O)c1cn(C)cn1 | -7
Cc1ccc(S(=O)(=O)Nc2ccc3c(c2)CC(=O)N([C@H](C)CO)C[C@@H](C)[C@H](CN(C)Cc2ccc(C(=O)O)cc2)O3)cc1 | 18
O=C(Oc1c(CN2CCOCC2)cc(Cl)c2cccnc12)c1ccc(F)cc1 | 109*
Cc1sc2nc(SCc3n[nH]c(=S)n3-c3ccccc3)[nH]c(=O)c2c1C | 28
Cc1ccc(S(=O)(=O)NCC(=O)Nc2ccc(I)cc2)cc1 | 12
Cc1ccc(S(=O)(=O)Nc2ccc3c(c2)C(=O)N([C@H](C)CO)C[C@H](C)[C@H](CN(C)Cc2ccc(C(F)(F)F)cc2)OCCCC[C@@H](C)O3)cc1 | 126*
CC(=O)c1cccc(NC(=O)C(C)N2C(=O)c3ccccc3C2=O)c1 (centres undefined) | 29
Cc1nc2cc(NC(=O)c3ccc(N4C(=O)CCC4=O)cc3)ccc2s1 | -1
O=C(O)CCN1C(=O)c2ccc(NC(=O)c3cccs3)cc2C1=O | -18
COc1ccc(CN(C)C[C@@H]2Oc3ccc(NC(=O)C4CCCCC4)cc3C(=O)N([C@@H](C)CO)C[C@@H]2C)cc1 | -11
COc1cc(C(=O)Nc2cc(-c3nc4ncccc4o3)ccc2C)ccc1OCc1ccc(Cl)cc1 | 112*
CC(=O)Nc1ccccc1NC(=O)COc1cc(C)c(Br)c(C)c1 | 20
Cc1ccc(-c2nc3ccccc3[nH]2)cc1NC(=O)COc1ccc(C(C)C)cc1 | -17
COc1ccc(S(=O)(=O)N(C)C[C@H]2Oc3ccc(NC(=O)Nc4ccc(C(F)(F)F)cc4)cc3CC(=O)N([C@@H](C)CO)C[C@@H]2C)cc1 | 6
COc1ccc(NC(=O)N(C)C[C@H]2Oc3ccc(NC(=O)NC(C)C)cc3CC(=O)N([C@H](C)CO)C[C@H]2C)cc1 | 4
CC(=O)Nc1ccc(NC(=O)CN(c2cc(C(F)(F)F)ccc2Cl)S(C)(=O)=O)cc1 | 9
COc1ccc(Cl)cc1N(CC(=O)Nc1cc(Cl)ccc1Cl)S(C)(=O)=O | 1
C[C@@H]1CN([C@@H](C)CO)C(=O)c2cccc(NC(=O)C3CCOCC3)c2O[C@H]1CN(C)Cc1ccc(-c2ccccc2)cc1 | 57
COc1ccc(S(=O)(=O)N(C)C[C@H]2Oc3ccc(NS(=O)(=O)c4ccccc4)cc3CC(=O)N([C@H](C)CO)C[C@H]2C)cc1 | 3
COc1ccc(NC(=O)Nc2cccc3c2O[C@@H](CN(C)C(=O)Nc2ccc(C(F)(F)F)cc2)[C@@H](C)CN([C@@H](C)CO)C3=O)cc1 | 21
C[C@H](CO)N1C[C@H](C)[C@H](CN(C)C)Oc2ccc(N(C)C)cc2C1=O | 9
Cc1nc2c(o1)N(c1ccccc1)C(N)=C(C#N)C2c1c(Cl)nn(-c2ccccc2)c1C (centres undefined) | u
CC(=O)N(c1ccc2oc3c(c2c1)CCCC3)S(=O)(=O)c1cccc2cccnc12 | 9
Cc1noc(C)c1S(=O)(=O)Nc1cccc2c1O[C@@H](CN(C)Cc1ccc(Cl)c(Cl)c1)[C@@H](C)CN([C@H](C)CO)C2=O | 11
C[C@H](CO)N1C[C@H](C)[C@H](CN(C)S(=O)(=O)c2ccccc2)Oc2c(NC(=O)Nc3ccc4c(c3)OCO4)cccc2C1=O | 38
C[C@@H]1CCCCO[C@@H](CN(C)S(=O)(=O)c2ccc(F)cc2)[C@@H](C)CN([C@H](C)CO)C(=O)c2cc(NC(=O)NC3CCCCC3)ccc2O1 | 14

4 of these compounds, reformatted.
COc1ccc(S(=O)(=O)Nc2cccc3c2O[C@@H](CN(C)Cc2ccc(C(=O)O)cc2)[C@@H](C)CN([C@H](C)CO)C3=O)cc1
  NOMO-1 viab: -2

Cc1ccc(-c2nc3ccccc3[nH]2)cc1NC(=O)COc1ccc(C(C)C)cc1
  NOMO-1 viab: -17

C[C@H](CO)N1C[C@H](C)[C@H](CN(C)S(=O)(=O)c2ccccc2)Oc2c(NC(=O)Nc3ccc4c(c3)OCO4)cccc2C1=O
  NOMO-1 viab: 38

COc1ccc(NC(=O)Nc2cccc3c2O[C@@H](CN(C)C(=O)Nc2ccc(C(F)(F)F)cc2)[C@@H](C)CN([C@@H](C)CO)C3=O)cc1
  NOMO-1 viab: 21

Next entries follow:
SMILES | NOMO-1 viab
C[C@H](CO)N1C[C@H](C)[C@@H](CN(C)Cc2ccc(C(F)(F)F)cc2)Oc2ccc(NC(=O)CCCCCC(=O)Nc3ccccc3N)cc2C1=O | 35
C[C@H]1CN([C@@H](C)CO)C(=O)Cc2cc(NC(=O)Nc3ccc(C(F)(F)F)cc3)ccc2O[C@@H]1CN(C)C | 18
Cc1ccc(S(=O)(=O)Nc2cccc3c2O[C@H](CN(C)CC2CC2)[C@H](C)CN([C@H](C)CO)C3=O)cc1 | 4
Cc1nnc(SCC(=O)Nc2cccc([N+](=O)[O-])c2)s1 | -18
Nc1cc(=O)nc(SCC(=O)N(c2ccccc2)c2ccccc2)n1-c1ccccc1 | -9
COc1ccc(CCNC(=O)c2cc3cc(F)ccc3nc2C)cc1OC | 28
COc1ccc([N+](=O)[O-])cc1NC(=O)C(C)N(c1ccc(C)cc1)S(C)(=O)=O (centres undefined) | 112*
Cc1noc(C)c1S(=O)(=O)Nc1ccc2c(c1)CC(=O)N([C@H](C)CO)C[C@H](C)[C@H](CN(C)Cc1ccc(-c3ccccc3)cc1)O2 | u
N#CCCSCc1ccc2oc(C(=O)O)cc2c1 | 24
Cc1c(C)c(C)c(S(=O)(=O)N2CCCC2)c(C)c1C | 63
COc1ccc(S(=O)(=O)Nc2cccc3c2O[C@@H](CN(C)CC2CCCCC2)[C@H](C)CN([C@@H](C)CO)C3=O)cc1 | 4
Cc1nc2c([nH]1)C1(CCC(c3ccccc3)CC1)C(C#N)=C(N)O2 (centres undefined) | 27
NCCNC(=O)c1ccc(Cl)cc1 | -13
CSCC(NS(=O)(=O)c1ccc(Br)cc1)C(=O)O (centres undefined) | -5
CCCCn1c2ccccc2c2nnc(SCC(=O)c3ccccc3)nc21 | 8

Laid out differently: results already given
COc1ccc([N+](=O)[O-])cc1NC(=O)C(C)N(c1ccc(C)cc1)S(C)(=O)=O (centres undefined)
  NOMO-1 viab = 112*
Cc1noc(C)c1S(=O)(=O)Nc1ccc2c(c1)CC(=O)N([C@H](C)CO)C[C@H](C)[C@H](CN(C)Cc1ccc(-c3ccccc3)cc1)O2
  NOMO-1 viab = u

Next part.
SMILES | NOMO-1 viab
C[C@@H]1CN([C@H](C)CO)C(=O)Cc2cc(NS(=O)(=O)c3ccc(Cl)cc3)ccc2O[C@@H]1CN(C)C | 3
COc1ccc(CN(C)C[C@H]2Oc3ccc(NS(=O)(=O)c4ccc(OC)cc4)cc3CC(=O)N([C@@H](C)CO)C[C@@H]2C)cc1 | 13
COc1ccc(N(C(=O)c2cccnc2)S(=O)(=O)c2ccccc2)cc1 | 17
COc1cc(OC)c(NC(=O)CCN2C(=O)c3ccccc3C2=O)cc1Cl | -26
O=C(CSc1nnc(-c2ccncc2)o1)Nc1ccccc1F | 11
O=C(OC[C@]12O[C@H]1[C@@H](O)[C@@H]1C=CO[C@@H](O[C@@H]3O[C@H](CO)[C@@H](O)[C@H](O)[C@H]3O)[C@@H]12)c1ccccc1 | -2
CC(=O)N[C@@H](CC(C)C)C(=O)O | 6
Cc1ccc(NC(=O)CSc2n[nH]c(-c3ccncc3)n2)cc1C | 16
C[C@@H]1CN([C@@H](C)CO)C(=O)c2cc(NC(=O)Nc3ccc(F)cc3)ccc2O[C@H]1CN(C)Cc1ccc(C(F)(F)F)cc1 | 113*
OCCCNc1ncnc2scc(-c3ccccc3)c12 | 44
CCc1nc2n[nH]c(N)c2c2c1COC(C)(C)C2 | -5
Cc1noc(C)c1S(=O)(=O)Nc1cccc2c1O[C@H](CN(C)S(=O)(=O)c1ccc(Cl)cc1)[C@H](C)CN([C@H](C)CO)C2=O | 41
CC(=O)Nc1nc2ccccc2n1CCN1CCOCC1 | 23
CC(C)NC(=O)Nc1ccc2c(c1)CC(=O)N([C@@H](C)CO)C[C@H](C)[C@@H](CN(C)Cc1ccccc1)O2 | 7
COc1ccccc1NC(=O)CSC1=NCCS1 | 1
C[C@@H]1CN([C@H](C)CO)C(=O)c2cccc(NS(=O)(=O)c3ccc(Cl)cc3)c2O[C@H]1CN(C)Cc1ccncc1 | -8
C[C@@H]1CN([C@H](C)CO)C(=O)c2cc(NS(=O)(=O)c3cccs3)ccc2O[C@H]1CN(C)Cc1ccc(C(F)(F)F)cc1 | 43
COc1ccc(OC)c(NC(=O)NCc2cnn(C)c2)c1 | 7
C[C@H]1CN([C@@H](C)CO)C(=O)c2cc(N(C)C)ccc2O[C@@H]1CN(C)Cc1ccccc1 | -8
C[C@@H]1CCCCO[C@@H](CN(C)Cc2ccc(C(F)(F)F)cc2)[C@@H](C)CN([C@H](C)CO)C(=O)c2cc(NC(=O)CCC(F)(F)F)ccc2O1 | 24
CCOC(=O)c1c(NC(=O)c2ccc(Cl)c(S(=O)(=O)N3CCOCC3)c2)sc2c1CCCC2 | 14
O=C(Nc1ccccc1)c1ccc(S(=O)(=O)c2cccc(S(=O)(=O)N3CCOCC3)c2)cc1 | 12
COC(=O)c1ccccc1NC(=O)CSc1nc(-c2cccs2)cc(C(F)(F)F)c1C#N | 20
Cc1ccccc1Cn1c(NCc2ccco2)nc2c1c(=O)n(C)c(=O)n2C | 16
CC(=O)OC1/C=C(/C(=O)O)CC/C=C(/C)C(=O)/C=C\C1(C)C (centres undefined) | 120*
O=C(Nc1ccccc1)C(=S)Nc1ccccc1 | 38
COc1cccc(NC(=O)CSc2nnc(-c3ccc(Cl)cc3)n2-c2cccc(C)c2)c1 | 123*
CCOc1cc(CO)c(Br)cc1OCC(=O)O | 9
C[C@@H]1O[C@@H](O[C@@H]2[C@@H](O)[C@H](Oc3c(-c4ccc(O)cc4)oc4cc(O)cc(O)c4c3=O)O[C@H](CO)[C@H]2O)[C@H](O)[C@H](O)[C@H]1O | 12
CC(=O)c1c(C)nc(-c2ccc(Cl)cc2)nc1NC(=O)Cc1ccccc1 | 38
C[C@@H]1CN([C@H](C)CO)C(=O)Cc2cc(NC(=O)C3CCCCC3)ccc2O[C@@H]1CN(C)Cc1ccc(-c2ccccc2)cc1 | 113*
CCOC(=O)CSc1nc(SCC(=O)OCC)c2c3c(sc2n1)CCC3 | 34
C[C@@H]1CN([C@@H](C)CO)C(=O)Cc2cc(NC(=O)c3ccncc3)ccc2O[C@@H]1CN(C)C(=O)Nc1cccc2ccccc12 | 18
c1csc(-c2nnc3n2-c2ccccc2SC3)c1 | 23
C[C@@H]1CN([C@H](C)CO)C(=O)c2cccc(NC(=O)C3CCCCC3)c2O[C@@H]1CN(C)C(=O)NC1CCCCC1 | 26
CC(C)NC(=O)Nc1ccc2c(c1)CC(=O)N([C@@H](C)CO)C[C@H](C)[C@H](CN(C)S(=O)(=O)c1cccs1)O2 | -26
C[C@H]1CN([C@@H](C)CO)C(=O)c2cc(NC(=O)Cc3cn(C)c4ccccc34)ccc2O[C@H]1CN(C)Cc1ccc(C(=O)Nc2ccccc2N)cc1 | u
CCOC(=O)c1c(NC(=O)COc2cc(C)ccc2C)sc2c1CCC2 | 11
COc1ccc(S(=O)(=O)Nc2cccc3c2O[C@H](CN(C)Cc2ccc(C(F)(F)F)cc2)[C@@H](C)CN([C@@H](C)CO)C3=O)cc1 | 12
CC1(C)N=C(NC(=O)NC(=O)c2ccccc2Cl)N(c2ccccc2)O1 | 2
CCc1c(C)sc(NC(=O)CSc2nc(-c3ccccc3)cc(C(F)(F)F)n2)c1C#N | 10
C[C@H](CO)N1C[C@H](C)[C@H](CN(C)S(=O)(=O)c2ccc(F)cc2)Oc2c(NC(=O)c3ccc(-c4nccs4)cc3)cccc2C1=O | 56
Cc1noc(C)c1NC(=O)N(C)C[C@H]1Oc2ccc(NC(=O)Nc3ccc(F)cc3)cc2C(=O)N([C@@H](C)CO)C[C@@H]1C | 28
O=C(CN1CCc2ccccc21)Nc1nnc(-c2cccs2)s1 | 32
Cn1c(SCC(=O)Nc2ccccc2F)nnc1-c1ccccc1 | -11
CC(=O)Nc1ccc(S(=O)(=O)NC2(C(F)(F)F)C(=O)N(c3ccc(C(C)C)cc3)C(C)=C2C(C)=O)cc1 (centres undefined) | 4
O=C(COc1ccc(CO)cc1)Nc1ccccc1 | -2
C[C@H](CO)N1C[C@H](C)[C@@H](CN(C)S(=O)(=O)c2cn(C)cn2)Oc2ccc(NS(=O)(=O)c3cccs3)cc2C1=O | 11
C[C@H]1CN([C@@H](C)CO)C(=O)c2cc(NC(=O)Nc3ccc(C(F)(F)F)cc3)ccc2O[C@@H]1CN(C)Cc1ccc(-c2ccccc2)cc1 | 107*
C[C@@H]1CN([C@@H](C)CO)C(=O)c2cccc(NC(=O)c3nc4ccccc4s3)c2O[C@@H]1CN(C)Cc1ccccc1 | 104*
COc1ccccc1/C=C(\C#N)c1ccc(C)cc1 | 17
O=C(O)COc1ccc(NC(=O)c2ccc(NC(=O)c3ccco3)cc2)cc1 | 18
